Bioassay records as filed in PubChem.
KSHV LANA nucl: LANA-nucleosome interaction inhibition; FITC-LANA1-23 / chicken nucleosome fluorescence polarization; hits give low values; z-score (no concentration beside the values); hit rate 0.3% among 51,000; AID 720717;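 active means both repeat wells score below -2 in polarization z-score versus plate sample wells, excluding overly bright wells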;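 further: 100 nL library stock added to about 30 µL; numbers are from one replicate; some results filed as inactive read as strong as hits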
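Assay system: purified chicken nucleosomes with FITC-labelled LANA N-terminal peptide (1-23) / Probe or stimulus: 50 nM FITC-LANA1-23 probe / Compound dosing: pin-transferred compound, 100 nL / Times: compound with peptide–nucleosome mix 10–45 min at room temperature / Technique: fluorescence polarization, 480 nm excitation, 535 nm parallel and perpendicular emission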
Ab BasE inh: BasE siderophore biosynthesis inhibition; hit rate 0.1% among 84,000; inhibition, % (concentration not given with the values); purified BasE, fluorescence polarization binding displacement;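 active means both replicates above 25% with normal brightness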;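 further: 0% = negative plate control signal and 100% = positive plate control signal; stock transfer was 100 nL into about 30 µL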
An asterisk follows results filed as active; x = not tested or not shown. These rows are one share of the data (hit frequency here may not be typical).

> COc1ccc(N2Cc3cccc(C(=O)NCCCN4CCN(c5cccc(Cl)c5)CC4)c3C2=O)cc1
- KSHV LANA nucl: -0.57
- Ab BasE inh: 0.6
> CCN(C(=O)Nc1cccc(Cl)c1)c1ccccc1
- KSHV LANA nucl: 0.039
- Ab BasE inh: 3.3
> C=CCSC1=C(C#N)C(c2ccc(C)cc2)C(C(=O)OC)C(=O)N1 (configuration not stated)
- KSHV LANA nucl: x
- Ab BasE inh: 3.1
> Cn1c(=NC(=O)c2ccc(S(C)(=O)=O)cc2)sc2ccccc21
- KSHV LANA nucl: -1
- Ab BasE inh: 2.4
> Cc1ccc(C(=O)C2CCN(C(=O)Cc3ccccc3)CC2)cc1
- KSHV LANA nucl: -0.78
- Ab BasE inh: -3.8
> Cc1nc(C2COc3ccccc3O2)ncc1S(=O)(=O)c1ccc(Cl)cc1 (configuration not stated)
- KSHV LANA nucl: x
- Ab BasE inh: 0.9
> O=C(c1cc2cc(Cl)cc(Cl)c2oc1=O)N1CCCCC1
- KSHV LANA nucl: 1.1
- Ab BasE inh: -0.3
> CN1c2ccc(Cl)cc2C(=O)NC1c1ccc(C#N)cc1 (configuration not stated)
- KSHV LANA nucl: x
- Ab BasE inh: 2.7
> CC(=O)Nc1ccc(S(=O)(=O)NNC(=S)NCc2ccco2)cc1
- KSHV LANA nucl: 0.55
- Ab BasE inh: -2.2
> Nc1ccc(S(=O)(=O)NCc2ccncc2)cc1
- KSHV LANA nucl: 0.068
- Ab BasE inh: -1.1
> COc1ccc(C2CC(c3ccccc3)=NN2C(=O)CSc2nc(N)c(C#N)cc2C#N)cc1 (configuration not stated)
- KSHV LANA nucl: x
- Ab BasE inh: -11
> NS(=O)(=O)c1ccc(CCNC(=O)c2c(-n3cccc3)sc3c2CCCC3)cc1
- KSHV LANA nucl: x
- Ab BasE inh: 2.3
> CCOC(=O)Cc1csc(CC(N)=O)n1
- KSHV LANA nucl: 1.6
- Ab BasE inh: -3.0
> Cc1nn(-c2ccccc2)c(OC(=O)c2ccc(Br)o2)c1Sc1ccccc1
- KSHV LANA nucl: -0.18
- Ab BasE inh: -0.9
> Nc1ccc(CCC(=O)N2CCCC2)cc1
- KSHV LANA nucl: -1.8
- Ab BasE inh: 1.2
> COc1cccc2c(=O)c(C(=O)NCc3cccs3)c[nH]c12
- KSHV LANA nucl: -1
- Ab BasE inh: -4.7
> CC1CN(C(=O)COc2ncnc3c2cnn3-c2ccccc2)CC(C)O1 (configuration not stated)
- KSHV LANA nucl: x
- Ab BasE inh: -0.5
> N#Cc1c(N)nc(SCc2ccccc2)c(C#N)c1C1CCCCC1
- KSHV LANA nucl: x
- Ab BasE inh: 0.8
> CCn1c(-c2nonc2NC(C)=O)n[nH]c1=S
- KSHV LANA nucl: -0.65
- Ab BasE inh: -0.5
> Fc1ccc(COc2cn(-c3ccccc3)nn2)cc1
- KSHV LANA nucl: x
- Ab BasE inh: -0.5

Grouped by structure: the entries above containing a halogen
> COc1ccc(N2Cc3cccc(C(=O)NCCCN4CCN(c5cccc(Cl)c5)CC4)c3C2=O)cc1
- KSHV LANA nucl: -0.57
- Ab BasE inh: 0.6
> CCN(C(=O)Nc1cccc(Cl)c1)c1ccccc1
- KSHV LANA nucl: 0.039
- Ab BasE inh: 3.3
> Cc1nc(C2COc3ccccc3O2)ncc1S(=O)(=O)c1ccc(Cl)cc1 (configuration not stated)
- KSHV LANA nucl: x
- Ab BasE inh: 0.9
> O=C(c1cc2cc(Cl)cc(Cl)c2oc1=O)N1CCCCC1
- KSHV LANA nucl: 1.1
- Ab BasE inh: -0.3
> CN1c2ccc(Cl)cc2C(=O)NC1c1ccc(C#N)cc1 (configuration not stated)
- KSHV LANA nucl: x
- Ab BasE inh: 2.7
> Cc1nn(-c2ccccc2)c(OC(=O)c2ccc(Br)o2)c1Sc1ccccc1
- KSHV LANA nucl: -0.18
- Ab BasE inh: -0.9
> Fc1ccc(COc2cn(-c3ccccc3)nn2)cc1
- KSHV LANA nucl: x
- Ab BasE inh: -0.5
